# Screening results from PubChem.
# miR-21 reporter – raises the signal of a miR-21 reporter; HeLa miR-21 FLuc reporter, luciferase, 48 h; Potency, µM (series often up to 38.3 µM), without a hit: top-dose reporter change, positive = more light; 340,000 tested, under 10 active; active = well fitted rising curve with a large enough effect; inconclusive = small, poorly fitted or top-dose-only effect; inactive = no such curve, though single readings can be large or run the other way;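 note: % of control where 0% means no effect; miR-21 action dims this reporter so a rising signal means less miR-21 action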
#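 HeLa miR-21-FLuc reporter line, endogenous miR-21; 2000 cells/well in DMEM/10% FBS; compound titration up to ~40uM final, 48 h, 37 degree Celsius; luciferase detection reagent, 15 min lysis, CCD luminescence.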
# GLA inh pH 4.5 – blocks human alpha-galactosidase A at pH 4.5 | 230,000 tested, under 10 active | purified enzyme, 4-MU-alpha-Gal fluorescence, pH 4.5 | activity change, negative = inhibition, % at 105 µM | AID 1467; inconclusive = small, poorly fitted or top-dose-only inhibition, or a rising curve; inactive = flat fitted curve, though single readings scatter; no compound was filed as active;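 note: 0% = full activity with enzyme and -100% = basal without enzyme; dose as in the result columns while the protocol names 77 µM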
# Target sequence (P06280 whole entry, looked up): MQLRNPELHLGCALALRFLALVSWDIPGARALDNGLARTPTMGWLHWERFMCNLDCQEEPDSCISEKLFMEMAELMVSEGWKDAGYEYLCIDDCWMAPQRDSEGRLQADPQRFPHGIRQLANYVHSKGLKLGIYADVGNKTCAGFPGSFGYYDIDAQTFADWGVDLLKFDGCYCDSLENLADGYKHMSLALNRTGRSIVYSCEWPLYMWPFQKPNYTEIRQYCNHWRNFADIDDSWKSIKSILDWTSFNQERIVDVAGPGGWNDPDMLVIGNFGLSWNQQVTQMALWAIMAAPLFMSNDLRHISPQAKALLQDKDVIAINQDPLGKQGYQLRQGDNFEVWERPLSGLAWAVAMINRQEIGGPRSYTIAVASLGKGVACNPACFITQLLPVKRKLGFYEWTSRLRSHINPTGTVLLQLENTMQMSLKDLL
# Rango dissoc inh – prevents RanGTP from dissociating the Rango-importin beta complex. actives 0.071% (n = 340,000). O95149+P62826. Potency, µM (top dose mostly 46.1 µM), without a hit: at the top dose activity change, negative = inhibition. Biochemical FRET Rango-importin beta, RanGTP-induced dissociation; active means falling FRET ratio curve, often poorly fitted, with flat reads before Ran was added; inconclusive means other falling curves, or compound fluorescence or quenching; inactive means flat or rising ratio curve;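 note: potency is the fitted concentration of half-maximal effect; % of control where 0% means no effect; nearly all actives have a fitted effect of over 45% in size; -100% = wells without RanGTP and RCC1; the record marks most hits as doubtful in a second field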
#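 Compounds sat 5 min at room temperature with 0.1 uM Rango biosensor plus 0.25 uM importin beta, then FRET pre-read. RanGTP-RCC1 (0.6 uM Ran, 2mM GTP, 0.2 uM RCC1) added for 45 min, and the CFP/YFP post-read measured blocked complex dissociation.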
# Rango complex inh – prevents formation of the Rango-importin beta complex; Q14974; Rango CFP/YFP FRET sensor + importin beta, 45 min; Potency, µM (titrated, usually from 92.2 µM), inactives show top-dose inhibition of complex formation; actives 0.031% (n = 340,000); AID 540263; active = rising FRET ratio curve, often small or poorly fitted; inconclusive = mostly compound fluorescence or quenching in the first reads; inactive = flat curves in all reads;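 note: potency is the fitted concentration of half-maximal effect; 0% = DMSO wells and 100% = buffer wells lacking importin beta; nearly all actives have a fitted effect of over 15% in size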
#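 FRET biosensor Rango (snurportin 1 IBB between N-terminal EYFP and C-terminal Cerulean), 50 nM in PBS/1 mM DTT/0.02% Tween-20/0.1% BSA, preincubated 5 min RT with compound; 0.125 microM importin beta added, 45 min RT, CFP/YFP FRET ratio read.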
# Active calls of the source: *; ? = inconclusive; . = not tested or not shown; & = joins results of further samples; [ ] = another dose, or the depositor's remark. Some of the compounds tested. The share of hits here may be higher or lower than overall.
miR-21 reporter,GLA inh pH 4.5,Rango dissoc inh,Rango complex inh,Structure
-1%,3,-5%,-2.6%,CC(C)CNC(=O)COC(=O)CCC(=O)c1ccc(Cl)cc1
-1%,-1,0%,0.9%,CC(C)=CC(=O)Nc1ccc(S(=O)(=O)Nc2ccccn2)cc1
.,.,-1%,-0.9%,Cc1cccc(C(=O)NCC(=O)N2CCC2)c1
-18%,0,6%,-3.7%,COc1cc(Cl)c(S(=O)(=O)N2CCN(Cc3ccc4c(c3)OCO4)CC2)cc1Cl
0%,.,24%,-0.3%,Cc1ccc(-n2nnnc2CS(=O)(=O)c2ccccc2)c(C)c1
1%,-4,1%,5.9%,O=C(C[n+]1ccc2ccccc2c1)Nc1cc(C(F)(F)F)ccc1Cl
-16%,.,-3%,?,CC(OC(=O)Cc1n[nH]c(=O)c2ccccc12)C(=O)Nc1ccccc1[N+](=O)[O-] (stereo unspecified)
-5%,.,17%,1.7%,CCSc1nsc(NC(=O)Nc2ccccc2OC)n1
-69%,6,0%,0.1%,Cc1nc2cc(NC(=O)Nc3cccc4ccccc34)ccc2n1C
-7%,1,23%,-2.2%,Cc1ccc(C)c(NC(=S)NCC(c2cccnc2)N2CCOCC2)c1 (stereo unspecified)
-47%,0,2%,0.3%,Cc1sc(C(=O)Nc2ccc3ccccc3c2)cc1CC(=O)O
-3%,6,-1%,-0.6%,Cc1ccccc1NC(=O)CC1S/C(=N/c2nccs2)N(C)C1=O (stereo unspecified)
-8%,7,10%,0.2%,CN1CCN(CCC(=O)Nc2ccc(C3CCCC3)cc2)CC1
-1%,0,-21%,-0.5%,O=C(OCC#CCSc1nnc(-c2ccccc2)o1)c1cc2ccccc2o1
-12%,2,-12%,-1.0%,COc1ccc(Nc2nc(Cl)nc(NCCO)n2)cc1
2%,4,-15%,?,OCCn1c(CSc2nnc(-c3ccco3)n2-c2ccccc2)nc2ccc(Cl)cc21
0%,.,0%,4.5%,CN(Cc1ccco1)S(=O)(=O)c1csc(C(N)=O)c1
0%,.,0%,-1.6%,CCN(c1ccc(OC)cc1)S(=O)(=O)c1nnc(NC(=O)c2ccco2)s1
-10%,8,?,?,CCOc1nc(-c2ccc(OC)cc2)ccc1-c1noc(-c2cc(OC)c(OC)c(OC)c2)n1
-7%,0,-8%,-0.7%,Cc1cccc(NC(=O)Cn2cnc3ccccc3c2=O)c1C

# Remaining list, next part.
miR-21 reporter,GLA inh pH 4.5,Rango dissoc inh,Rango complex inh,Structure
-9%,-1,-4%,0.3%,Cc1ccc(S(=O)(=O)Nc2ccccc2CNC2CCCCC2)cc1
-1%,-1,2%,0.0%,Cc1cc(S(=O)(=O)NCCN(C)C)c(C)s1
-2%,.,-1%,-0.1%,CCn1nc(C)c(CN2CCC(n3nccc3NC(=O)c3ccc4c(c3)OCO4)CC2)c1C
20%,0,-3%,4.2%,Cc1ccc(-c2c[nH]c(=S)n2-c2ccccc2F)cc1
4%,-1,-2%,-3.4%,CC(c1ccco1)N(C(=O)c1ccccc1NS(=O)(=O)c1cccc([N+](=O)[O-])c1)c1ccccn1 (stereo unspecified)
10%,.,-16%,-1.1%,CCOC(=O)N1CCC(NC(=O)c2ccc3c(c2)N=C(CC)c2ccccc2S3)CC1
.,.,-7%,0.1%,Cc1cc(=O)[nH]c(SCc2ccc(Cl)cc2)n1
4%,-19,.,.,C#CCOCCOCCOCCNc1nc(N2CCN(C(=O)[C@H]([C@@H](C)CC)n3cc([C@@H](N)CC(C)C)nn3)CC2)nc(N2CCN(C(=O)[C@H](Cc3cc4ccccc4[nH]3)n3cc([C@@H](N)C(C)CC)nn3)CC2)n1 (stereo partly specified)
-19%,17,9%,2.6%,O=C(c1ccccc1Sc1ccc([N+](=O)[O-])cc1)N1CCCCC1
-1%,-2,14%,?,Cc1ccc(-c2cc(C(=O)Nc3sc4c(c3C(=O)NCc3ccco3)CCC4)[nH]n2)c(O)c1
0%,.,18%,6.0%,O=C(O)c1ccc(NS(=O)(=O)c2cccc(S(=O)(=O)c3ccc(Cl)c(Cl)c3)c2)cc1
.,.,1%,1.5%,O=C(/C=C/c1ccccc1)CCN1CCCCC1
1%,.,-2%,0.2%,COc1cc2cc(C(=O)N3CCN(c4ccccc4OC)CC3)[nH]c2cc1OC
2%,-7,-6%,3.0%,S=C(NCc1cccnc1)Nc1ccc(Cl)cc1
-5%,-13,-14%,-2.7%,C=C(C)CNC(=S)Nc1sc2c(c1C(=O)OCC)CC(C)(C)OC2
-3%,-5,19%,1.9%,CC(C)(Oc1ccc(Cl)cc1)C(=O)NCCCn1ccnc1
-4%,.,-7%,0.0%,CCCCc1nc(SCC(=O)Nc2nnc(C(C)C)s2)n[nH]1
3%,2,-2%,0.5%,CC1CC(C)CN(CC(=O)c2cccs2)C1 (stereo unspecified)
-2%,0,-4%,-0.1%,Cc1cc(NO)nc(-c2ccc(Br)cc2)n1
-10%,5,6%,2.0%,O=C1CNC(=O)/C(=C/c2ccco2)N1

# The list goes on:
miR-21 reporter,GLA inh pH 4.5,Rango dissoc inh,Rango complex inh,Structure
-2%,.,1%,-1.3%,CCOc1ccc(/C=C/c2[nH]c(=O)[nH]c(=O)c2[N+](=O)[O-])cc1
-7%,0,5%,0.1%,CC(CCc1ccccc1)NC(=O)c1ccc(NC(=O)c2cccc(Br)c2)cc1 (stereo unspecified)
0%,0,0%,-2.3%,C=CCNC(=O)c1cccc(Br)c1
.,.,12%,2.5%,O=C1NCC(Nc2ccc(Br)cc2)C(=O)N1 (stereo unspecified)
.,.,1%,2.7%,C[C@H](CO)N1C[C@H](C)[C@@H](CN(C)S(=O)(=O)c2ccccc2)Oc2ccc(NS(=O)(=O)c3ccc(F)cc3)cc2C1=O
-1%,-3,-4%,-1.0%,CC1CC(C)(C)N(C(=O)CN2C(=O)c3ccccc3C2=O)c2ccccc21 (stereo unspecified)
.,.,-6%,-7.3%,CCN(CC)S(=O)(=O)c1cc(NC(=O)Cc2ccc(S(=O)(=O)N3CCOCC3)s2)ccc1Cl
12%,0,2%,3.1%,Cc1nc(-c2ccc(S(=O)(=O)NCc3cccnc3)s2)cs1
-2%,-8,-2%,0.6%,O=C(CC1CCCCC1)N1CCC(c2nc(-c3ccc(S(=O)(=O)N4CCCC4)cc3)no2)CC1
-12%,2,1%,0.5%,COc1ccc(C)c(-n2c(=O)n(Cc3ccccc3)c(=O)c3[nH]cnc32)c1
-7%,-1,-3%,-4.5%,O=C(N/N=C/C=C/c1ccco1)c1cnccn1
-3%,-6,-13%,0.1%,O=C(CSc1nnc(-c2ccccc2)c(-c2ccccc2)n1)N1CCc2ccccc21
.,.,2%,2.9%,CC(=NNc1ccc([N+](=O)[O-])cn1)c1ccc(N)cc1
1%,-1,0%,-2.1%,O=C(COc1ccc(S(=O)(=O)N2CCCC2)cc1Cl)Nc1ccc2c(c1)OCO2
?,2,0%,1.1%,N=c1ccn(Cc2ccc(Cl)cc2Cl)cc1
1%,4,30%,-0.4%,CCCSc1nnc2n(C)c(=O)c3c4c(sc3n12)CCC4
-4%,-2,-25%,1.7%,COc1cc(/C(C#N)=C/c2cccc3ccccc23)c([N+](=O)[O-])cc1OC
-20%,.,-6%,-0.4%,CCc1ccc(NC(=S)N2CCN(C)CC2)cc1
.,.,1%,-1.0%,O=C(CSc1ncnc2c1cnn2-c1ccccc1)NCC1CCCO1 (stereo unspecified)
6%,-11,-10%,-0.5%,Cc1ccc(-n2ncc(C(=O)Nc3cc(Cl)ccc3C)c2C2CCNCC2)cc1C

# (next part)
miR-21 reporter,GLA inh pH 4.5,Rango dissoc inh,Rango complex inh,Structure
-1%,.,1%,-0.4%,COc1cccc(-c2cc(C(=O)N3CCN(S(=O)(=O)c4ccc(Br)cc4)CC3)[nH]n2)c1
-9%,-3,0%,1.7%,COc1ccc(NC(=S)N2CCNC(=O)C2CC(=O)Nc2ccc(C)cc2)cc1 (stereo unspecified)
5%,1,1%,0.6%,CCn1c(CNC(=O)COc2ccc(C(C)C)cc2)nnc1SCC(=O)Nc1ccccc1F
-4%,.,-11%,-0.5%,Cc1ccsc1/C=N/NC(=O)CNC(=O)c1c(F)cccc1Cl
.,.,-16%,5.5%,O=C1CCCN1C(=O)CSc1ncnc2sccc12
-1%,0,-21%,0.3%,O=c1c(Cc2ccc(Cl)cc2Cl)c(O)ccn1CCCN1CCOCC1
-5%,3,32%,-2.7%,CCC(=O)c1ccc(OCC(=O)N2CCCC2)c(OC)c1
-13%,-2,14%,1.4%,C/C=C/Cn1c(SCc2ccc(C)cc2)nc2c1c(=O)[nH]c(=O)n2C
7%,-7,0%,-2.3%,COc1cccc(NC(=O)CSc2nnc(C)s2)c1
-23%,6,-2%,-0.1%,Nc1nnc(SCc2ccc(F)cc2)s1
.,.,0%,-0.8%,Cn1c(=O)c2c(nc(CN3CCN(c4cccc(Cl)c4)CC3)n2CCc2ccccc2)n(C)c1=O
-2%,4,-9%,3.7%,Cc1ccc(C(=O)NC2CCN(S(=O)(=O)c3ccccc3)CC2)cc1
0%,.,-7%,-0.2%,CN(Cc1ccccn1)C(=O)C1CCC(=O)N(CCc2ccc(Cl)cc2)C1 (stereo unspecified)
-6%,.,-29%,-6.5%,CN(C)C1(CNC(=O)C2CCC(=O)N(CCc3ccc(Cl)cc3)C2)CCCCC1 (stereo unspecified)
-3%,0,4%,-1.3%,O=c1ccc(Cl)cn1Cc1ccccc1F
1%&-9%,-2,-3%,-3.0%,CCOC(=O)c1c(NC(=O)c2cc(CC(C)C)on2)sc(C(C)=O)c1C
-3%,.,-2%,4.3%,Cc1ccc(-c2nc(S(=O)(=O)c3ccccc3)c(SCC(=O)NCC3CCCO3)o2)cc1 (stereo unspecified)
-23%,.,?,?,COc1ccccc1NC(=O)NNC(=O)c1cc2ccccc2cc1O
.,.,2%,3.1%,C#CCOCCOCCOCCNc1nc(N2CCOCC2)nc(N2CCN(C(=O)[C@H](CCC(=O)O)n3cc([C@@H](N)CCCCN)nn3)CC2)n1
-1%,4,1%,-1.7%,CCOC(=O)c1ccccc1NC(=O)/C(C)=C/C(=O)O

# More entries follow:
miR-21 reporter,GLA inh pH 4.5,Rango dissoc inh,Rango complex inh,Structure
21%,2,-21%,?,CCOC(=O)c1c(OCC)[nH]c2c1cc(O)c1ccccc12
11%,.,9%,-1.7%,c1ccc(CN2CCN(C(c3ccccc3)c3ccccc3)CC2)cc1
.,.,-7%,-3.5%,CC1=C(n2ccnc2)CCC1=O
-5%,0,8%,-3.7%,COc1ccc(Cc2nnc(NC(=O)c3cccc([N+](=O)[O-])c3)s2)cc1
-7%,0,4%,-2.7%,COC(=O)c1cc(OC)c(OC)cc1NC(=O)c1ccccc1
-37%,.,-12%,-2.1%,NC(=O)[C@@H]1CCCN1C(=O)c1ccc2oc(CCc3ccccc3)nc2c1
-3%,-5[21.1 µM],-4%,-1.3%,O=C(O)c1ccc(N2CC3CC(C2)c2cccc(=O)n2C3)c(NC(=S)Nc2ccc(Cl)cc2Cl)c1 (stereo unspecified)
-11%,-1,0%,-1.9%,S=C(NCCc1ccccn1)Nc1ccc(Cl)c(Cl)c1
.,.,1%,4.4%,O=C(COC(=O)c1c(Cl)cccc1Cl)NCC1CCCO1 (stereo unspecified)
1%,-3,9%,1.7%,Cc1cc(C)c(C)c(S(=O)(=O)Nc2ccc(O)cc2)c1C
-2%,3,14%,0.7%,O=C(COC(=O)c1cc(=O)[nH]c2ccccc12)c1cccs1
-18%,.,5%,-0.1%,OCCN1CCN(c2ncnc3scc(-c4ccc(F)cc4)c23)CC1
